DUX4 inh: DUX4-mediated transcription inhibition. activity change, negative = inhibition, % (no concentration beside the values). hit rate 0.8% among 37,000. 293T-iDUX4 ZSCAN4-Gaussia luciferase reporter, 24 h; hits give low values;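 active = -10% or lower and over 25 points stronger than a control reporter; inconclusive = -10% or lower with a smaller gap; inactive = above -10%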;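 note: 0% = median of neutral control wells and -100% = median of positive control wells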
DUX4 inh difference: recorded beside DUX4 inh, whose call it bears; Gaussia minus Italica difference, %; measured here: selective DUX4 reporter inhibition;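 worked out from the two reporters; negative = selective loss of the DUX4 reporter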
DUX4 inh control: second read-out of DUX4 inh, no call of its own (marks repeat the call); activity change, negative = inhibition, %; measured here: Italica tet-on control reporter;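 0 = neutral control and -100 = positive control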
* hit, by the source's call; ? = inconclusive; / = not tested or not shown.

Compound,DUX4 inh,DUX4 inh difference,DUX4 inh control
CCNC(=O)c1cc2c(c(-c3cccc(-c4cccc(OC)c4)c3)n1)[C@@H](CCO)N([S@](=O)C(C)(C)C)C2,1.9,2.6,-0.8
O=C1CNC[C@@H]2[C@@H](c3ccc(C#CC4CCCCC4)cc3)[C@H](CO)N12,-3.6,0.1,-3.7
COc1cccc(NC(=O)N(C)C[C@H]2Oc3ncc(C#Cc4cccnc4)cc3C(=O)N([C@@H](C)CO)C[C@@H]2C)c1,2.4,2.3,0.1
CC(C)NC(=O)N1[C@@H]2CN(C(=O)Nc3ccc(F)cc3)c3ccccc3[C@@H]2[C@@H]1CO,1.9,3.6,-1.8
CO[C@H]1CN(C)C(=O)c2cc(NC(=O)c3ccccc3F)ccc2OC[C@H](C)N(CC2CCOCC2)C[C@@H]1C,-4.1,-4.5,0.5
Cc1ccc(NC(=O)C[C@H]2CC[C@H]3[C@@H](COc4ccc(NS(C)(=O)=O)cc4C(=O)N3C)O2)cc1,1.7,-3.4,5.0
CS(=O)(=O)N1CC(=O)N2[C@H](C1)[C@H](c1ccc(C#Cc3ccccc3)cc1)[C@@H]2CO,-1.3,-8.0,6.7
C[C@@H]1CN([C@@H](C)CO)C(=O)CCCn2nncc2CO[C@H]1CN(C)C(=O)Nc1ccccc1C(F)(F)F,2.8,1.9,0.8
CC(C)C(=O)Nc1ccc2c(c1)C(=O)N(C)[C@H]1CC[C@H](CC(=O)NCCc3ccccc3)O[C@H]1CO2,0.2,-3.1,3.3
CCC(=O)N1CC[C@@H]2[C@@H](CO)N(C)c3ccc(-c4cccc(OC)c4)cc3[C@@H]21,-8.2,8.9,-17.1

Ordered by count of non-hydrogen atoms (high to low): some entries from above
Compound,DUX4 inh,DUX4 inh difference,DUX4 inh control
COc1cccc(NC(=O)N(C)C[C@H]2Oc3ncc(C#Cc4cccnc4)cc3C(=O)N([C@@H](C)CO)C[C@@H]2C)c1,2.4,2.3,0.1
C[C@@H]1CN([C@@H](C)CO)C(=O)CCCn2nncc2CO[C@H]1CN(C)C(=O)Nc1ccccc1C(F)(F)F,2.8,1.9,0.8
CC(C)C(=O)Nc1ccc2c(c1)C(=O)N(C)[C@H]1CC[C@H](CC(=O)NCCc3ccccc3)O[C@H]1CO2,0.2,-3.1,3.3
CC(C)NC(=O)N1[C@@H]2CN(C(=O)Nc3ccc(F)cc3)c3ccccc3[C@@H]2[C@@H]1CO,1.9,3.6,-1.8
CS(=O)(=O)N1CC(=O)N2[C@H](C1)[C@H](c1ccc(C#Cc3ccccc3)cc1)[C@@H]2CO,-1.3,-8.0,6.7

Additional entries follow:
Compound,DUX4 inh,DUX4 inh difference,DUX4 inh control
CC=Cc1ccc2n(c1=O)C[C@H]1[C@H](CO)[C@@H](C(=O)NCCC)N(C(=O)CC3CC3)[C@@H]21 (mixture of isomers),3.2,3.2,0.0
COc1ccc(S(=O)(=O)N[C@@H]2CC[C@H](CCNC(=O)Cc3ccccn3)O[C@H]2CO)cc1,1.3,-2.4,3.7
COC(=O)[C@@H]1[C@@H](CO)[C@@H]2Cn3c(ccc(-c4ccccc4)c3=O)[C@@H]2N1C(=O)C1CC1,-2.5,-2.6,0.1
O=C(Cc1ccccc1)N1CC2(C1)[C@@H](c1ccccc1)[C@@H](CO)N2C(=O)Cc1ccccc1,5.8,6.8,-1.1
C[C@@H]1CN([C@@H](C)CO)S(=O)(=O)c2ccc(C#CC3CC3)cc2O[C@@H]1CN(C)C(=O)c1cccc(F)c1,-1.2,1.3,-2.5
COc1ccc2c3c(n(C)c2c1)[C@@H](CO)N(C(=O)Nc1cccc(F)c1)CC31CCN(C)CC1,5.2,-0.5,5.7
CO[C@@H]1CN(C)C(=O)c2ccc(NC(=O)c3cnccn3)cc2OC[C@H](C)N(C(=O)C2CC2)C[C@H]1C,2.6,-0.5,3.1
C[C@H]1CN([C@@H](C)CO)C(=O)c2cccc(NC(=O)C3CCOCC3)c2O[C@@H]1CN(C)C(=O)Nc1ccc2c(c1)OCO2,4.2,2.3,1.8
CO[C@H]1CN(C)C(=O)c2ccc(NS(C)(=O)=O)cc2OC[C@@H](C)N(CC2CC2)C[C@H]1C,0.2,-7.2,7.4
COc1ccc2c3c([nH]c2c1)[C@@H](CO)N(Cc1nccs1)CC31CN(Cc2cccnc2)C1,3.6,2.1,1.5
O=C(C[C@H]1C[C@@H]2c3cc(NC(=O)NC4CCCC4)ccc3O[C@@H]2[C@@H](CO)O1)NCc1ccc(-c2ccccc2)cc1,-8.5,-7.3,-1.2
O=C(C[C@H]1C[C@@H]2c3cc(NC(=O)Nc4ccccc4F)ccc3O[C@@H]2[C@@H](CO)O1)NCc1ccc(Oc2ccccc2)cc1,?,/,/
CS(=O)(=O)N1CC(=O)N2[C@@H](CO)[C@@H](c3ccc(C#CCC4CCCC4)cc3)[C@@H]2C1,-0.2,-2.6,2.4
COc1ccc2c3c([nH]c2c1)[C@@H](CO)N(Cc1ccncc1)CC31CN(C(=O)c2cccnc2)C1,18.0,5.8,12.1
COCCNC(=O)C[C@@H]1C[C@H]2c3cc(NC(=O)Nc4ccc(C(F)(F)F)cc4)ccc3O[C@H]2[C@H](CO)O1,-3.3,-13.8,10.5
C/C=C/c1cnc2c(c1)C(=O)N([C@@H](C)CO)C[C@H](C)[C@@H](CN(C)C(=O)c1cnccn1)O2,-0.9,0.1,-1.0
N#C[C@H]1[C@H](c2ccc(-c3ccccc3F)cc2)[C@@H](CO)N1C(=O)C1CCC1,0.2,-0.6,0.8
Cc1cccc(-c2ccc([C@H]3[C@H]4CN(S(=O)(=O)c5cccs5)CCCCN4[C@H]3CO)cc2)c1,?,/,/
C[C@@H]1CN([C@@H](C)CO)C(=O)c2cc(NC(=O)CCC(F)(F)F)ccc2O[C@H]1CN(C)S(=O)(=O)c1ccc(F)cc1,-0.4,7.4,-7.8
COc1cccc(-c2ccc3c(c2)[C@H]2[C@H](CCN2S(=O)(=O)c2ccccc2OC)[C@H](CO)N3)c1,10.0,6.1,3.9
CCS(=O)(=O)N1[C@H](CO)[C@@H](c2ccccc2)C12CN(C(=O)C1CCCCC1)C2,-0.9,7.3,-8.3
C[C@@H]1CN([C@@H](C)CO)C(=O)c2cc(NS(=O)(=O)c3cn(C)cn3)ccc2O[C@@H](C)CCCCO[C@@H]1CN(C)C(=O)CCCN(C)C,-4.4,-0.4,-4.0
N#C[C@H]1[C@H](c2ccccc2)[C@@H](CO)N1C(=O)c1ccc2c(c1)OCO2,-4.2,-8.9,4.7
CC(=O)N1[C@H](CO)[C@H](c2ccccc2)[C@H]1CN(CC(C)C)C(=O)c1ccccn1,-4.3,-0.2,-4.1
C[C@H](CO)N1C[C@H](C)[C@H](CN(C)Cc2cccc3c2OCCCO3)OCc2ccccc2-c2c(n(C)c3ccccc23)C1=O,?,/,/
C[C@@H]1CCCCO[C@@H](CN(C)S(C)(=O)=O)[C@H](C)CN([C@H](C)CO)C(=O)c2cc(NC(=O)NC3CCCCC3)ccc2O1,-3.3,-3.3,-0.1
C/C=C/c1ccc([C@@H]2[C@@H](CO)N(c3nc(-c4ccccc4)cs3)[C@H]2C#N)cc1,4.8,1.9,3.0
C/C=C/c1ccc([C@H]2[C@@H](CO)N3C(=O)CN(Cc4ccccc4)C[C@@H]23)cc1,17.0,11.2,5.8
O=C(Nc1ccc(F)cc1)Nc1ccc2c(c1)[C@H]1C[C@H](CC(=O)N3CCOCC3)O[C@@H](CO)[C@H]1O2,1.3,2.0,-0.7
CC(C)NC(=O)N(C)C[C@H]1Oc2ncc(-c3ccccc3F)cc2C(=O)N([C@@H](C)CO)C[C@H]1C,-6.0,-3.8,-2.2
COc1ccc(NC(=O)N(C)C[C@@H]2OCc3cnnn3CCCC(=O)N([C@H](C)CO)C[C@@H]2C)c(OC)c1,4.3,3.6,0.7
CN1[C@@H]2Cn3c(ccc(C4=CCCCC4)c3=O)[C@H]1[C@@H](C(=O)NCCc1ccccc1)[C@@H]2CO,3.4,0.6,2.8
COc1cccc(-c2ccc3n(c2=O)C[C@@H]2[C@@H](CO)[C@H](C(=O)NC4CCC4)N[C@H]32)c1,-2.4,2.2,-4.6
COc1cccc(C#Cc2ccc([C@@H]3[C@@H](CO)N(C(=O)C4CCCCC4)[C@H]3C#N)cc2)c1,-1.6,-0.3,-1.3
C[C@H](CO)N1C[C@H](C)[C@@H](CN(C)C(=O)C2CCCCC2)Oc2ncc(-c3cccnc3)cc2C1=O,-2.0,-2.7,0.7
CC(C)NC(=O)N1CCCCN2[C@H](C1)[C@@H](c1ccc(Br)cc1)[C@@H]2CO,6.6,-7.0,13.6
CN1CCCCN2[C@H](C1)[C@@H](c1ccc(-c3ccc(F)cc3)cc1)[C@@H]2CO,16.9,18.4,-1.5
CN(C)C(=O)c1ccc(-c2ccc([C@H]3[C@@H](C#N)N(C(=O)C4CCCC4)[C@H]3CO)cc2)cc1,2.4,0.4,2.0
O=C(C[C@@H]1C[C@@H]2c3cc(NC(=O)CC4CC4)ccc3O[C@@H]2[C@H](CO)O1)NCc1ccc(Cl)cc1,2.7,-0.6,3.3
O=C(C[C@H]1C=C[C@H](NC(=O)C2CCOCC2)[C@H](CO)O1)Nc1ccc(-c2ccccc2)cc1,?,/,/

Pulled by compound from the list above, 2 records:
Compound,DUX4 inh,DUX4 inh difference,DUX4 inh control
CC(C)NC(=O)N1CCCCN2[C@H](C1)[C@@H](c1ccc(Br)cc1)[C@@H]2CO,6.6,-7.0,13.6
CN1CCCCN2[C@H](C1)[C@@H](c1ccc(-c3ccc(F)cc3)cc1)[C@@H]2CO,16.9,18.4,-1.5

(further entries)
Results follow in this order: DUX4 inh | DUX4 inh difference | DUX4 inh control
> CCN1[C@@H]2c3ccc(-c4ccc(F)cc4)c(=O)n3C[C@@H]2[C@@H](CO)[C@@H]1C(=O)OC
 : -0.7 | -3.7 | 3.1
> CO[C@@H]1CN(C)C(=O)c2cc(NC(=O)c3cccc(F)c3)ccc2OC[C@H](C)N(C)C[C@H]1C
 : 6.1 | 3.9 | 2.2
> C[C@H]1CN([C@@H](C)CO)C(=O)CCCn2nncc2CO[C@H]1CN(C)C(=O)c1ccc(N2CCN(C)CC2)cc1
 : 2.9 | 2.5 | 0.4
> CC(C)CC#Cc1ccc([C@@H]2[C@@H](CO)N3C(=O)CN(S(=O)(=O)c4ccccc4)C[C@H]23)cc1
 : 1.0 | -11.1 | 12.2
> CS(=O)(=O)Nc1ccc2c(c1)[C@H]1C[C@H](CC(=O)NCc3cc(F)ccc3F)O[C@H](CO)[C@H]1O2
 : 1.5 | -0.7 | 2.2
> CCNC(=O)[C@H]1[C@H](CO)[C@H]2Cn3c(ccc(-c4ccccc4F)c3=O)[C@H]2N1CC1CC1
 : 9.8 | 14.0 | -4.2
> O=C(C[C@H]1CC[C@@H]2NC[C@@H](O)COC[C@H]2O1)NCCc1ccccc1
 : 18.1 | 19.4 | -1.3
> COc1ccc2c3c(n(C)c2c1)[C@@H](CO)N(C(=O)Nc1cccc(F)c1)CC31CN(C)C1
 : 2.7 | 1.8 | 0.9
> COc1cccc(CNC(=O)C[C@H]2CC[C@H]3[C@H](COc4ccc(NC(=O)c5cccs5)cc4C(=O)N3C)O2)c1
 : 1.2 | -1.5 | 2.7
> COCC(=O)N1CC(=O)N2[C@H](CO)[C@@H](c3ccc(Br)cc3)[C@@H]2C1
 : 13.2 | 6.6 | 6.6
> COc1ccccc1S(=O)(=O)N[C@@H]1C=C[C@H](CC(=O)NCc2cccc(F)c2)O[C@@H]1CO
 : 1.9 | 1.3 | 0.6
> O=C(C[C@H]1C[C@H]2c3cc(NS(=O)(=O)c4ccc(F)cc4)ccc3O[C@H]2[C@H](CO)O1)NCCN1CCCCC1
 : -3.4 | -1.8 | -1.7
> CCNC(=O)Nc1ccc2c(c1)C(=O)N(C)[C@H]1CC[C@@H](CC(=O)NCC3CC3)O[C@@H]1CO2
 : -2.3 | -2.2 | -0.1
> C[C@@H]1CN([C@@H](C)CO)C(=O)c2cc(C#CC3CC3)cnc2O[C@H]1CN(C)Cc1ccccc1C(=O)O
 : 1.6 | -1.0 | 2.6
> CN(C)C(=O)C[C@H]1CC[C@H]2[C@H](COc3ccc(NS(=O)(=O)c4cccc(F)c4)cc3C(=O)N2C)O1
 : 1.5 | 2.7 | -1.2
> COc1ccc2c3c(n(C)c2c1)[C@H](CO)NCC31CN(C(=O)c2cccc(F)c2)C1
 : ? | / | /
> CN(C)CCCNC(=O)C[C@@H]1CC[C@H]2[C@@H](COC[C@H](O)CN2S(=O)(=O)c2ccc(F)cc2)O1
 : 10.2 | 7.3 | 3.0
> C[C@@H]1CN([C@@H](C)CO)C(=O)c2cc(NC(=O)Cn3cnnn3)ccc2O[C@H]1CN(C)Cc1ccc(C(=O)Nc2ccccc2N)cc1
 : -3.0 | -3.8 | 0.8
> COc1ccc2c3c(n(C)c2c1)[C@H](CO)N(CC1CC1)CC31CN(C(=O)CC2CC2)C1
 : 10.3 | 6.7 | 3.6
> O=C(C[C@@H]1CC[C@H](NC(=O)CC2CC2)[C@@H](CO)O1)NCC(F)(F)F
 : 7.4 | 4.4 | 3.0
> O=C(Nc1ccccc1F)N1CCCCN2[C@H](CO)[C@H](c3ccc(C4=CCCC4)cc3)[C@@H]2C1
 : 7.3 | 3.2 | 4.1
> CCCNC(=O)N1[C@H](CO)[C@@H](c2ccc(-c3cccnc3)cc2)[C@@H]1C#N
 : 0.4 | -1.2 | 1.6
> O=C(C[C@H]1CC[C@@H]2[C@H](COC[C@@H](O)CN2Cc2cc(F)cc(F)c2)O1)NC1CCCC1
 : 7.6 | 4.6 | 3.1
> O=C(N[C@@H]1CC[C@@H](CCn2cc(C3CC3)nn2)O[C@H]1CO)c1cccnc1
 : -3.5 | -7.5 | 4.0
> COCC(=O)N1[C@@H](C#N)[C@@H](c2ccccc2-c2ccc(C)cc2)[C@@H]1CO
 : 5.4 | 5.5 | -0.1

Bioassay records as filed in PubChem.

A portion of the library. The share of hits here may be higher or lower than overall.
